AID504770 = growth inhibition of E. coli YBA685, primary screen, V. cholerae RctB inhibitors; AID 504770, 2011; z-score (test concentration not listed); E. coli YBA685 rctB-dependent plasmid, OD600 growth, 3 h; hits give low values; 130,000 tested, 0.27% active;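 active = z-score under -2 on both plates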;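 note: wells of about 30 µL received 100 nL stock; score is relative to mean and SD of the test wells; the first replicate is given; strong numbers were not always called active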
Ba CapD inh = Bacillus anthracis CapD inhibitors, primary screen, biochemical, fluorescence intensity; CapD gamma-glutamyltranspeptidase (Bacillus anthracis Ames Ancestor); purified CapD enzyme, fluorescence intensity read-out; hits give low values; some hits fall short of the stated cut; z-score (test concentration not listed); 140,000 tested, 0.23% active; AID 492967, 2010;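 active = z-score under -4 in either of two replicates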;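 note: stock transfer was 100 nL into about 40 µL; score is relative to mean and spread of the plate; one replicate is shown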
* = called active by the depositor; nt = no result given.

SMILES | AID504770 | Ba CapD inh
COc1cscc1C(=O)NNC(=O)OCC1(c2ccc(Cl)cc2)CC1 | nt | 0.35
CC1=C(C(=O)Nc2ccccc2)C(c2ccccc2Br)NC(=O)N1 (configuration not stated) | nt | 0.13
O=C(Nc1ccc(I)cc1)c1ccc(COc2ccccc2Br)o1 | 0.9 | 0.18
CCOc1cc(C2C(C(=O)OCCSCC)=C(C)NC3=C2C(=O)CCC3)cc(Br)c1O (configuration not stated) | nt | 7.95
OCCSc1sc(=S)sc1SCCO | 0.1 | nt
CCOC(=O)C1=C(CCl)OC(N)=C(C#N)C1c1cccc(F)c1 (configuration not stated) | nt | -0.71
Cn1nc(-c2ccc(F)cc2)nc2c(=O)n(C)c(=O)nc1-2 | -0.5 | -1.41
CCCc1nc2ccccc2c(C(=O)OCC#N)c1CC | -0.5 | nt
O=C(COC(=O)c1ccccc1NC(=O)c1ccco1)c1ccccc1 | 0.35 | nt
CC1(C)CC(NCC(O)COCc2ccco2)CC(C)(C)N1 (configuration not stated) | -0.35 | nt
Cc1cc(C)c(C)c(C(=O)COC(=O)c2cc(=O)[nH]c3ccccc23)c1C | 1.35 | -0.335
C=CCN(CC=C)S(=O)(=O)c1nc2nc(C)c(C)c(C)n2n1 | 2.1 | -0.03
O=C(Cc1ccc(F)cc1)Nc1ccc2c(c1)OC1(CCCCC1)O2 | nt | -0.4
COc1cccc(CNC(=O)CCn2nc(-c3ccccc3)ccc2=O)c1 | -0.65 | -1.99
O=[N+]([O-])c1ccc2c(c1)C(N1CCOCC1)/C(=C/C1(O)CCCCC1)O2 (configuration not stated) | nt | -0.645
O=C(NC1CCCCCC1)C1Cc2cc(Cl)ccc2O1 (configuration not stated) | -0.55 | nt
CCCN(CCC)S(=O)(=O)c1ccc(C(=O)ON=C2CCCCC2)cc1 | nt | -0.82
CCC(C)N1CC(C(=O)O)CC1=O (configuration not stated) | -0.5 | 0.185
Cn1nc(C(=O)N2CCCC2)c2c1-c1ccccc1SC2 | -0.95 | -0.115
CC(C)(CNS(=O)(=O)c1ccccc1Br)N1CCOCC1 | -0.8 | nt
COC(=O)C(NC(=O)c1ccc(C)cc1)(Nc1sc2c(c1C#N)CCC(C)C2)C(F)(F)F (configuration not stated) | nt | 0
O=C(CSc1nnc2sc3ccccc3n12)c1cccs1 | 0.15 | 0.59
CC(C)CCNC(=O)c1cc2c(=O)n3ccccc3nc2s1 | 1.2 | -0.655
CC1CCN(CCC(=O)Nc2ccc(Br)cc2)CC1 | -0.25 | nt
Oc1ccccc1-c1cc(-c2ccc(Cl)cc2)n[nH]1 | 1.05 | -0.245
O=C(c1cccs1)N(Cc1ccccc1)Cc1ccccc1 | 0 | 0.095
CC1CC(=O)Nc2ccccc2N1C(=O)c1ccccc1 (configuration not stated) | 0 | 0.59
CC(CC(=O)Oc1ccc(C(F)(F)F)cc1)S(=O)(=O)c1ccc(Cl)cc1 (configuration not stated) | 0.2 | -0.875
O=C(CCCn1nc(-c2ccccc2)c2ccccc21)N1CCN(c2ccc(F)cc2)CC1 | 0.05 | 2.15
COc1cc(C2C3=C(CC(C)(C)CC3=O)OC3=C2C(=O)CC(C)(C)C3)cc(OC)c1O | nt | -0.245

Three entries from above, in CSV form:
mol,AID504770,Ba CapD inh
CC1CC(=O)Nc2ccccc2N1C(=O)c1ccccc1 (configuration not stated),0,0.59
CC(CC(=O)Oc1ccc(C(F)(F)F)cc1)S(=O)(=O)c1ccc(Cl)cc1 (configuration not stated),0.2,-0.875
O=C(CCCn1nc(-c2ccccc2)c2ccccc21)N1CCN(c2ccc(F)cc2)CC1,0.05,2.15

More records.
SMILES | AID504770 | Ba CapD inh
CC(C)(C)OC(=O)N1CSCC1C(=O)O (configuration not stated) | -0.55 | 0.06
CCOC(=O)c1c(C)nn(-c2cccc(C)c2C)c1C | -0.15 | 0.04
CCC1CCCCN1CCCNC(=O)C1CCC(Cn2c(=O)[nH]c3ccccc3c2=O)CC1 (configuration not stated) | 0.2 | -0.14
CC(C)c1ccc(NC(=O)C(c2ccccc2)N2CCN(C=O)CC2)cc1 (configuration not stated) | -0.2 | 0.095
Cc1ncsc1CCSc1nc2ccccc2c(=O)n1C | -0.05 | 0.44
CCCc1ccc(-c2ccc(C(=O)Cc3ccc(Cl)cc3)cc2)c(F)c1 | nt | -0.545
O=C(NCCc1ccccc1)Nc1ccc2c(c1)N(Cc1ccccc1)C(=O)c1ccccc1S2 | 1.35 | -1.01
C/C(N)=C(/C#N)C(=O)CSc1ncnc2scc(-c3ccccc3)c12 | 1.9 | nt
O=C(Cn1nc(-c2ccc3c(c2)OCCO3)ccc1=O)Nc1ccc(N2CCOCC2)cc1 | 1.2 | nt
Cc1cc(C)nc(N(C)C(=O)CC(C)(C)n2cccc2)n1 | nt | -0.995
COC(=O)c1c(NC(=O)CCNCc2ccco2)sc2c1CCC2 | -0.25 | 2.63
O=c1[nH]c(-c2ccccc2O)nc2ccccc12 | nt | -0.345
O=C1OC(c2ccccc2Cl)=N/C1=C/c1ccco1 | 0.2 | 0.175
FC(F)(F)c1ccc2n[nH]nc2c1 | nt | -0.375
COc1cc(NC(=O)CS)cc(OC)c1 | -0.2 | -1.2
CCOC(=O)C1=C(CSc2nc(C)cc(C)c2C#N)OC(N)=C(C#N)C1c1ccccc1 (configuration not stated) | nt | 0.325
Cc1ccc(C2C(C#N)=C(N)OC3=C2C(=O)CC(C)(C)C3)s1 (configuration not stated) | -1 | nt
NC(=O)COC(=O)C1CCCN(C2=NS(=O)(=O)c3ccccc32)C1 (configuration not stated) | -0.6 | nt
O=C(COC(=O)Cc1c(Cl)cccc1Cl)NCC1CCCO1 (configuration not stated) | -0.4 | 0.265
CCc1cc(C(=O)N2CCOCC2)c(NC2=NS(=O)(=O)c3ccccc32)s1 | 0.6 | 0.55
N#C/C(=C\c1ccccc1Sc1ccc(Cl)cc1)S(=O)(=O)c1ccc(Cl)cc1 | nt | -0.285
Cc1ccc(NC(=O)CN(C)C(=O)COc2cccc(-n3cnnn3)c2)cc1 | 1.55 | nt
CN(C)/C=N/c1nnc(Sc2ccc([N+](=O)[O-])cn2)s1 | nt | -2.47
CC1(C)CC(=O)C(=Cc2cn(CCC#N)nc2-c2ccccc2)C(=O)C1 | 0.45 | nt
CC(=O)OC1COC(N2CCc3ccccc32)C(OC(C)=O)C1OC(C)=O (configuration not stated) | -0.65 | nt
Cc1cc(C(=O)OCC(=O)NC2CCCCC2C)c2ccccc2n1 (configuration not stated) | 0 | 0.18
COc1ccc(-c2cn3c(n2)CCC3)cc1 | 1.4 | -0.125
CCNS(=O)(=O)c1ccc(-c2cc(C(=O)OCC)no2)s1 | 0.15 | 0.845
Nc1nc(-c2cc3c(cc2Br)OCCO3)cs1 | -0.45 | 0.43
O=C(CN(c1ccc2c(c1)OCCO2)S(=O)(=O)c1ccccc1)N1CCCCCC1 | -0.65 | nt
O=C1/C(=C/c2ccc(Cl)cc2)C=C(c2ccccc2)N1c1cccc(I)c1 | nt | -0.895
C=CCSc1nnc2n(-c3ccccc3C)c(=O)c3c4c(sc3n12)CCCC4 | nt | -0.495
O=C1/C(=C/N(C(=O)c2ccco2)c2ccc([N+](=O)[O-])cc2)Sc2ccccc21 | nt | -1.17
Cc1cc(C(=O)COC(=O)C2Cc3ccccc3CN2S(C)(=O)=O)c(C)n1-c1nccs1 (configuration not stated) | -0.15 | nt
Clc1ccc(Nc2nc(-c3ccncc3)nc3ccccc23)cc1 | nt | 0.095
O=C(NCC(c1cccs1)S(=O)(=O)c1ccc(Cl)cc1)C1CC1 (configuration not stated) | -0.75 | nt
CCCS(=O)(=O)c1ccc(C(=O)Nc2ccc(Cl)cc2)cn1 | -0.55 | 0.06
CC1=C(C(=O)Nc2ccccn2)C(c2cccc([N+](=O)[O-])c2)n2ncnc2N1 (configuration not stated) | nt | -0.855
CC(C)(C)C(=O)NC1CCN(C(=O)NCc2ccccc2)CC1 | -0.6 | nt
CC(C)(C)c1ccc(-c2nnc3s/c(=C\c4ccccc4)c(=O)n23)cc1 | nt | -0.09
O=C(O)c1cc2cc(Cl)cc(Cl)c2oc1=O | nt | 0.15
COc1cccc(C(=O)Nc2ccc(Cc3ccc(NC(=O)c4cccc(OC)c4)cc3)cc2)c1 | 1.1 | -0.14
O=C(Cn1cc(S(=O)(=O)CC(=O)N2CCc3ccccc32)c2ccccc21)N1CCCC1 | 2.85 | nt
CS(=O)(=O)Nc1ccc(-c2cn3ccccc3n2)cc1 | -0.7 | 83.3
N/C(=N\OS(=O)(=O)c1ccc(Cl)cc1)c1ccc(C(F)(F)F)cc1 | nt | -0.245
COC(=O)c1ccccc1NC(=O)c1oc2c(c1C)-c1[nH]ncc1CC2 | -1.15 | 56.5
Nc1nc(Cl)c(-c2ccccc2)c(Cl)n1 | 0.25 | 0.625
CCn1c(SCc2cccc(C)c2)nnc1C(C)NC(=O)c1ccccc1 (configuration not stated) | -0.25 | 0.355
O=C(O)CCC(=O)N1N=C(c2ccccc2)CC1c1ccccc1Cl (configuration not stated) | nt | -0.015
O=c1cc(-c2cccnc2)c2ccc(OCc3ccccn3)cc2o1 | nt | 2.42
Going on with the list:
SMILES | AID504770 | Ba CapD inh
COc1cc(NC(=O)c2cc3n(n2)C(C(F)(F)F)CC(c2ccccc2)N3)cc(OC)c1OC (configuration not stated) | nt | 0.38
CN(C)c1ccc(C(c2cc3c(cc2O)OCO3)N2CCCCC2)cc1 (configuration not stated) | -0.95 | -0.87
Cc1ccc2c(c1)-c1nc(SCc3ccc(C(C)(C)C)cc3)ncc1CS2 | nt | -0.44
Oc1cc2ccccc2cc1-c1nnc2n1-c1ccccc1SC2 | 1.45 | nt
CC(C)C12CN3CC(C(C)C)(CN(C1)C3(C)C)C2=O | 1.85 | nt
Cc1cc(NC(=O)COCc2cc(-c3ccc4c(c3)OCO4)on2)nn1Cc1ccc(Cl)cc1 | -0.8 | 0.685
CC1Cc2cc(S(=O)(=O)N3CCCC3)ccc2N1C(=O)C1CCC1 (configuration not stated) | -1.25 | -0.015
Cn1c(=O)[nH]c(=O)c2c1nc1n(-c3ccccc3)c(-c3ccccc3)cn21 | nt | 0.04
CNC(=O)c1cc2c(n(-c3ccccc3)c1=O)CC(C)(C)CC2=O | 0.2 | nt
COc1ccccc1N1CCN(CC(=O)n2c3ccccc3c3ccccc32)CC1 | 0.4 | 0.61

Looked up by structure from above:
SMILES | AID504770 | Ba CapD inh
CNC(=O)c1cc2c(n(-c3ccccc3)c1=O)CC(C)(C)CC2=O | 0.2 | nt
Cn1c(=O)[nH]c(=O)c2c1nc1n(-c3ccccc3)c(-c3ccccc3)cn21 | nt | 0.04
COc1ccccc1N1CCN(CC(=O)n2c3ccccc3c3ccccc32)CC1 | 0.4 | 0.61
CC1Cc2cc(S(=O)(=O)N3CCCC3)ccc2N1C(=O)C1CCC1 (configuration not stated) | -1.25 | -0.015

Next part
SMILES | AID504770 | Ba CapD inh
CCCSc1ncccc1C(=O)Nc1ccc(OC(F)(F)F)cc1 | 0.65 | 0.375
COc1ccc(/C=C/C(=O)OCC(=O)Nc2cccc(Cl)c2)cc1 | -0.25 | 0.055
CCN(CC)S(=O)(=O)c1ccc2c(c1)nc(CCC(=O)OCN1C(=O)c3ccccc3C1=O)n2C | 0.3 | nt
O=C(Cn1cc(S(=O)(=O)N2CCCC2)ccc1=O)c1c[nH]c2ccccc12 | -0.5 | nt
CC(C)NC(=O)c1cc2c(ccc3ccccc32)o1 | -0.75 | 113
CCC(C)(C)c1cc2cc(NC(=O)c3c(F)cccc3F)ccc2[nH]1 | nt | -0.345
CCOC(=O)c1cnc2cc(C(F)(F)F)ccc2c1N1CCCCCC1 | 0.35 | 0.19
CCn1c(CNC(=O)Cc2c(F)cccc2Cl)nnc1SC | -0.8 | nt
CCOC(=O)C1=C(C)OC(N)=C(C#N)C12C(=O)N1c3c(cccc32)C(C)CC1(C)C (configuration not stated) | -0.9 | nt
O=[N+]([O-])c1ccc(-c2ccc(-c3[nH]c(-c4ccc(O)cc4)nc3-c3ccccc3)cc2)cc1 | nt | 63.6
CC(=O)N1CCc2cccc(NC(=O)c3cc(Cl)nc(Cl)c3)c21 | nt | -0.565
CC1(C)CC(=O)C2=C(C1)Nc1cc(C(=O)c3ccccc3)ccc1NC2c1cc2c(cc1[N+](=O)[O-])OCO2 (configuration not stated) | nt | -1.51
CCOC(=O)C1=C(C)Nc2nnnn2C1c1cccc([N+](=O)[O-])c1 (configuration not stated) | nt | -0.77
COc1cccc(/C=C/c2nc3ccccc3c(=O)n2-c2ccc(NC(C)=O)cc2)c1OC | nt | 0.225
FC(F)(F)c1ccnc(-c2ccccc2)n1 | nt | 0.26
Cc1cc(OCC(=O)c2cccc(C(F)(F)F)c2)n2cnnc2n1 | -1.2 | 0.35
CCOc1nc(NCCN2CCOCC2)nc(NC(C)C)n1 | -0.65 | nt
Cc1cc(=O)n2nc(NC(C)C(=O)NCCCc3ccccc3)sc2n1 (configuration not stated) | -1.15 | -0.46
COc1ccc(C(=O)OC2C[C@H]3CC[C@@H](C2)N3C)cc1OC (some centres not stated) | nt | -0.26
CNC(=O)c1cccc(S(=O)(=O)N2CC(C)CC(C)C2)c1 (configuration not stated) | -1.8 | 0

Three compounds from above, sorted by heavy-atom count, low to high:
SMILES | AID504770 | Ba CapD inh
COc1ccc(C(=O)OC2C[C@H]3CC[C@@H](C2)N3C)cc1OC (some centres not stated) | nt | -0.26
CC(=O)N1CCc2cccc(NC(=O)c3cc(Cl)nc(Cl)c3)c21 | nt | -0.565
COc1cccc(/C=C/c2nc3ccccc3c(=O)n2-c2ccc(NC(C)=O)cc2)c1OC | nt | 0.225

Screening results: PubChem, ICCB-Longwood Screening Facility, Harvard Medical School
